Screens as filed in PubChem BioAssay.
Mtb bLac sens: beta-lactam sensitization of Mtb H37Rv; M. tuberculosis H37Rv growth with meropenem, percent inhibition; hits of this screen are not shown here; inhibition, % at 25 µM; hit rate 0.27% among 330,000; AID 434955;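 active = about 74% or more and at least 40 points above the plate without the antibiotic, then above 30% in a dose series; inconclusive = first-round hits that could not be retested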;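 also: growth measured after seven days incubation then overnight dye step; 0% = bacteria only wells and 100% = bacteria with antibiotic; twin plates without the antibiotic show which effects depend on it; some results filed as inactive read as strong as hits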
* hit, by the source's call; ? = inconclusive. The list is partial (hit frequency here may not be typical).

SMILES	Mtb bLac sens
CC(C)CCN(C(=O)c1cc(=O)[nH]c2ccccc12)c1c(N)n(Cc2ccccc2)c(=O)[nH]c1=O	-7
O=C(Cn1cc(C(F)(F)F)ccc1=O)OCC(=O)c1ccc[nH]1	-1
CCCNC(=O)N1[C@H]2CC[C@@H]1C(C(=O)OC)=C(c1ccc(F)cc1F)C2	-1
COc1ccc(NC(=O)COc2ccccc2F)cc1S(=O)(=O)N1CCCCC1	-1
Cc1ccc(S(=O)(=O)N2[C@@H](c3ccc(C#N)cc3)C(C(=O)O)=C[C@H]2CC2CCCC2)cc1	0
O=[N+]([O-])c1ccc(CSc2ccc(S(=O)(=O)N3CCCCC3)cn2)cc1	-4
CCN(CC)C(=O)c1ccc(C(=O)Nc2ccc(F)cc2)cc1	2
O=C(CN1CCN(S(=O)(=O)c2ccc(F)c(F)c2)CC1)Nc1ccccc1C(=O)NC1CC1	0
Cc1ccccc1OCCC(=O)NNC(=O)COc1cccc(F)c1	-2
CCC(=O)Nc1ccc(C(=O)COC(=O)Cc2ccsc2)cc1	10
Cc1ccc(C(=O)O)cc1[N+](=O)[O-]	-6
NC(=O)c1ccsc1NC(=O)COC(=O)COc1ccccc1[N+](=O)[O-]	1
CN(c1ccccc1)S(=O)(=O)c1cccc(NC(=O)COc2ccccc2)c1	7
CCN(C[C@H]1N[C@@](C)(C(=O)OC)[C@H]2C(=O)N(Cc3ccccc3)C(=O)[C@@H]12)S(=O)(=O)c1ccc(OC)cc1	4
O=C(CSc1nc(-c2cccs2)nc2ccccc12)NC1CCS(=O)(=O)C1 (stereo not drawn)	5
Cc1cc(C)cc(S(=O)(=O)Cc2noc(C(=O)NCc3ccccc3)c2C(=O)NCc2ccccc2)c1	-9
O=C(COC(=O)/C=C/c1ccco1)Nc1cc(S(=O)(=O)N2CCOCC2)ccc1Cl	-2
CN(CC(=O)Nc1ccc(F)cc1)CC(=O)N1CCCCC1	-8
O=C(c1ccc(S(=O)(=O)Nc2ccccc2)cc1)N1CCCC(C(F)(F)F)C1 (stereo not drawn)	-6
COc1ccccc1N1CCN(C(=O)C(C)NC(=O)c2ccco2)CC1 (stereo not drawn)	-5
COC(=O)c1c(-c2ccc(OC)cc2)sc2cc(OC)c(OC)cc12	57
Cc1ccc(C(=O)NNC(=O)c2ccncc2)cc1[N+](=O)[O-]	-4
COc1ccc(/C=C/C(=O)OCC(=O)NCCCc2ccccc2)cc1OC	3
O=C(CN1CCCCCC1)Nc1ccc(Br)cc1[N+](=O)[O-]	0
CC(O)C(NC(=O)OCc1ccccc1)C(=O)OCc1ccccc1 (stereo not drawn)	36
COc1cc(C(C)=O)ccc1OCC(O)CN1CCN(c2ccc(F)cc2)CC1 (stereo not drawn)	-11
Cc1ccc2nc3n(c(=O)c2c1)-c1cc(Cl)ccc1C(=O)NC3Cc1ccc(O)cc1 (stereo not drawn)	3
COC(=O)[C@H]1C[C@@H](c2ccccc2)[C@H](C)C1(C)C	-11
COc1ccc(Cl)cc1C(=O)OCC(=O)c1ccc[nH]1	63
CC(=O)C[C@@H](O)CC(=O)[C@@H]1OC(=O)CC/C=C\Cc2ccccc21	14
COc1ccc([C@H]2CC(=O)C=C(c3ccc(CNC(=O)OC(C)(C)C)cc3)C2)cc1	75
C=CCC[C@@H](Cc1ccc(F)cc1)C(=O)OC[C@@H](Cc1ccccc1)NC(=O)[C@H](CC=C)CC(=O)NCCO	5
Cc1ccc(S(=O)(=O)n2cc(-c3ccccc3)c3ccccc32)cc1	10
O=C(OCC(=O)c1c[nH]c2ccccc12)c1cncc(Br)c1	2
CC1(C)Cc2cccc(OCC(=O)NCc3ccc(F)cc3)c2O1	14
COc1cc(OC)cc(C(=O)NNC(=O)CCOc2ccccc2OC)c1	-1
OCC[C@H]1C[C@H](O)[C@@H](O)[C@]2(OCCc3ccccc32)O1	-21
C=CCC[C@@H](Cc1ccc(F)cc1)C(=O)OC[C@@H](NC(=O)[C@@H](CC=C)CC(=O)N[C@@H](CO)Cc1ccccc1)C(C)(C)C	-2
COc1ccc(CN(C)C(=O)C2CCN(C(=O)Nc3ccccc3)CC2)cc1OC	-16
COc1cn(-c2ccccc2)nc1C(=O)OCC(=O)Nc1ccc(C)c(C)c1	0

Random excerpt: 4 records from the list
SMILES	Mtb bLac sens
C=CCC[C@@H](Cc1ccc(F)cc1)C(=O)OC[C@@H](Cc1ccccc1)NC(=O)[C@H](CC=C)CC(=O)NCCO	5
Cc1ccc(S(=O)(=O)n2cc(-c3ccccc3)c3ccccc32)cc1	10
COc1ccc(CN(C)C(=O)C2CCN(C(=O)Nc3ccccc3)CC2)cc1OC	-16
COC(=O)c1c(-c2ccc(OC)cc2)sc2cc(OC)c(OC)cc12	57

Next section:
SMILES	Mtb bLac sens
Cc1noc(C)c1-c1csc(N2CCC(C(N)=O)CC2)n1	3
O=C(Nc1ccc(F)c(Cl)c1)C1CCCC1	-10
O=C(NC(=S)NC1CCS(=O)(=O)C1)c1ccccc1F (stereo not drawn)	?
COc1ccc(CCNC(=O)c2cccc(S(=O)(=O)N3CCOCC3)c2)cc1OC	-7
CC1CCN(CCCN2C(=O)C3C(C(=O)Nc4cccc(Cl)c4)C4C=CC3(O4)C2C(=O)NC2CCCCC2)CC1 (stereo not drawn)	-8
CC(C)(O)[C@@H]1CC[C@@](C)(C2CC[C@]3(C)C2[C@H](O)CC2[C@@]4(C)CC[C@H](O)C(C)(C)C4[C@@H](O[C@H]4O[C@@H](CO)[C@H](O)[C@@H](O)[C@@H]4O[C@@H]4O[C@H](CO)[C@@H](O)[C@H](O)[C@H]4O)C[C@]23C)O1 (stereo in doubt)	3
COc1ccccc1CC(=O)OCC(=O)N1CCN(c2ccc(F)cc2)CC1	8
O=C(NCCc1ccccc1)c1ccc2c(c1)S(=O)(=O)N=C1CCCCCN12	-8
COc1ccc(CNC(=O)CC2C[C@H](C(=O)N3CCOCC3)[C@@]3(CCC4CCCC4)c4[nH]c5ccccc5c4CCN3C2=O)cc1OC (stereo partly drawn)	3
O=S(=O)(c1ccc(Br)cc1Cl)N1CCCN(c2ccc(C(F)(F)F)cn2)CC1	-9
COc1cc2c(c(OC)c1OC)-c1ccc(O)c(=O)cc1[C@@H](NC(C)=O)CC2	3
COC(=O)C1=C(c2c(C)noc2C)C[C@@H]2CC[C@H]1N2C(=O)N1CCCC1	-4
CCN(C(=O)COC(=O)c1n[nH]c2ccccc12)c1ccccc1	0
O=C(COC(=O)c1ccc(F)cc1)NCC1COc2ccccc2O1 (stereo not drawn)	0
Nc1c(C(=O)CSc2nnnn2-c2ccccc2)c(=O)[nH]c(=O)n1C1CC1	-2
COc1cc(NC(=O)C[n+]2ccc(C(=O)c3ccccc3)cc2)cc(OC)c1	-8
Cc1ccc(Cl)cc1NC(=O)COC(=O)CCN1C(=O)C2CC=CCC2C1=O (stereo not drawn)	-10
COc1ccccc1-c1sc2cc3c(cc2c1C#CCO)OCO3	46
CCN(CC)S(=O)(=O)c1ccc(OC)c(NC(=O)CSCc2c(C)noc2C)c1	-4
CN(C(=O)COC(=O)c1ccc(S(=O)(=O)N2CCOCC2)cc1)c1ccccc1	-1

Some of these compounds in order of heavy-atom count, falling.
SMILES	Mtb bLac sens
CC1CCN(CCCN2C(=O)C3C(C(=O)Nc4cccc(Cl)c4)C4C=CC3(O4)C2C(=O)NC2CCCCC2)CC1 (stereo not drawn)	-8
O=S(=O)(c1ccc(Br)cc1Cl)N1CCCN(c2ccc(C(F)(F)F)cn2)CC1	-9
O=C(NC(=S)NC1CCS(=O)(=O)C1)c1ccccc1F (stereo not drawn)	?

Back to the main list; the six compounds before the break are reprinted first.
SMILES	Mtb bLac sens
Nc1c(C(=O)CSc2nnnn2-c2ccccc2)c(=O)[nH]c(=O)n1C1CC1	-2
COc1cc(NC(=O)C[n+]2ccc(C(=O)c3ccccc3)cc2)cc(OC)c1	-8
Cc1ccc(Cl)cc1NC(=O)COC(=O)CCN1C(=O)C2CC=CCC2C1=O (stereo not drawn)	-10
COc1ccccc1-c1sc2cc3c(cc2c1C#CCO)OCO3	46
CCN(CC)S(=O)(=O)c1ccc(OC)c(NC(=O)CSCc2c(C)noc2C)c1	-4
CN(C(=O)COC(=O)c1ccc(S(=O)(=O)N2CCOCC2)cc1)c1ccccc1	-1
O=C(O)CSCC(=O)N1N=C2/C(=C/c3ccccc3)CCCC2C1c1ccccc1 (stereo not drawn)	1
O=C(OCC(=O)N1CCOCC1)c1ccccc1OCc1ccc(Cl)cc1	-5
CC(NC(=O)COc1ccc(S(=O)(=O)N2CCOCC2)cc1)c1ccccc1 (stereo not drawn)	-9
Cc1cccc(OCCC(=O)Nc2ccc(C)c(S(=O)(=O)N3CCOCC3)c2)c1	-1
Cc1ccc(C(=O)NCc2ccc3c(c2)OCO3)o1	-4
O=C(NCC(F)(F)F)c1ccc(S(=O)(=O)N2CCN(C(=O)C3CCCO3)CC2)cc1 (stereo not drawn)	-4
Cc1noc(C)c1S(=O)(=O)N(C)C[C@H]1Oc2ccc(NC(=O)Cn3cnnn3)cc2C(=O)N([C@H](C)CO)C[C@@H]1C	-3
Cc1nc2ccc(NS(=O)(=O)c3ccc(Br)cc3)cc2s1	1
C=CCN([C@@H](CC(C)C)C(=O)OC)S(=O)(=O)N(CC=C)[C@@H](CC(C)C)C(=O)OC	-1
Cc1ccc(NC(=O)COc2ccccc2C(=O)NCc2ccccc2)cc1	0
C[C@@]12C(=O)N(c3ccc(Br)cc3)C(=O)N1[C@@H]1c3ccccc3OC[C@@H]1[C@H]2c1ccccc1	-4
Cc1ccc(SCC(=O)OCc2csc(CC(=O)Nc3ccccc3C)n2)cc1C	18
Cc1ccc(C(=O)C(C)OC(=O)CCS(=O)(=O)c2ccc(C)cc2)cc1 (stereo not drawn)	-8
C=CC[C@@H](CC(=O)N[C@H](CO)Cc1ccccc1)C(=O)N[C@H](COC(=O)[C@@H](CC=C)Cc1ccc(F)cc1)Cc1ccccc1	-8
O=C1NC(Cc2ccccc2)c2nc3ccccc3c(=O)n2-c2ccc(Cl)cc21 (stereo not drawn)	-5
CCOc1ccccc1NC(=O)C(c1ccccc1)N1CCN(C(=O)c2ccco2)CC1 (stereo not drawn)	-6
O=C(O)/C=C/C(O)c1ccc(Cl)cc1 (stereo not drawn)	-10
Cc1nc2ccccc2n1CC(=O)c1ccc(O)c(O)c1	-6
Cc1cccc(-c2ccc3ncnc(NCc4cccnc4)c3c2)c1	8
CC(C)(C)OCC1CO1 (stereo not drawn)	-6
COc1cc(/C=C(/C(=O)O)c2ccc(-c3ccccc3)cc2)cc(OC)c1OC	-3
O=C(Cn1[nH]c(=O)c2ccccc2c1=O)Nc1cccc(-c2nnc3n2CCCCC3)c1	-12
Cc1cc(C)c(NC(=O)COC(=O)C2CCCCC2)c(C)c1	23
COc1ccc(NC(=O)COC(=O)C2CCN(S(=O)(=O)c3cccs3)CC2)cc1OC	2
CC(NC(=O)C1CCN(S(=O)(=O)c2ccc(Br)s2)CC1)c1ccccc1 (stereo not drawn)	3
CN(CC(=O)Nc1ccc(Cl)cc1)CC(=O)Nc1cccc2ccccc12	50
COC(=O)C1=C(c2ccccc2OCc2ccccc2)C[C@@H]2CC[C@H]1N2C(=O)NCCOc1ccccc1Cl	2
COc1ccc(CCNC(=O)COC(=O)/C=C/c2cccc(F)c2)cc1	-5
Cc1cc(-c2ccc(N=Nc3c(S(=O)(=O)O)cc4cc(S(=O)(=O)O)cc(N)c4c3O)c(C)c2)ccc1N=Nc1c(S(=O)(=O)O)cc2cc(S(=O)(=O)O)cc(N)c2c1O	59
O=C(/C=C/c1cccs1)NNC(=O)c1cccc([N+](=O)[O-])c1	1
CC/C(=N\NC(=O)CNC(=O)/C=C/c1ccc(OC)cc1)c1ccccc1	2
COc1ccc(NC(=O)Cc2ccc(C)c(C)c2)cc1S(=O)(=O)N1CCCCC1	-3
C[C@@H](C(=O)NC1CCCC1)N1C(=O)N2CCc3c([nH]c4ccccc34)[C@@]2(C)C1=O	-5
CCN(CC(=O)NCc1ccc(F)cc1)C(=O)c1cccnc1SC	-3
CCCCN(C(=O)CSc1c(C)c(C)cc(C)c1C)c1c(N)n(CCC)c(=O)[nH]c1=O	4
CCN(CC(=O)Nc1cc(Cl)ccc1C)C(=O)c1nc2nc(C)cc(C)n2n1	0
COc1ccc(/C=N/NC(=O)c2cccs2)c2ccccc12	61
O=C(NNC(=O)C12CC3CC(CC(Br)(C3)C1)C2)c1ccccc1F	-4
CCOC(=O)c1ccc(S(=O)(=O)N2CCN(C/C=C/c3ccccc3)CC2)cc1	9
C[C@H](NC(=O)c1nc[nH]c1C(=O)NC1CCNCC1)C(=O)OCc1ccccc1	0
Cc1ccccc1CN1CCN(c2ccc(S(=O)(=O)N3CCCC3)cn2)CC1	-7
O=C(CSc1nncs1)NC(=O)Nc1ccc2c(c1)OCCO2	-4
CN(CC(=O)Nc1ccccc1Cl)C(=O)C1CSC2(C)CCC(=O)N12 (stereo not drawn)	-1
COc1ccc(CNC(=O)CCn2c(C)csc2=O)cc1	-1
O=C(Nc1cccc(S(=O)(=O)N2CCOCC2)c1)c1ccc(=O)[nH]c1	-1
O=C(Nn1cnnc1)c1ccc([N+](=O)[O-])cc1Cl	5
CCCn1nc(C(=O)Nc2cccc(S(=O)(=O)N(C)c3ccccc3)c2)c2ccccc2c1=O	-1
CCCCc1cc(=O)oc2cc(C)cc(OC(C)C(=O)NCC3CCC(C(=O)O)CC3)c12 (stereo not drawn)	-13
Cc1ccsc1/C=C/c1n[nH]c(=O)c(C#N)c1C	-3
Cc1onc(-c2ccccc2)c1C(=O)N1CCN(c2ccccc2)CC1	-1
COc1ccc(CCN(C)C(=O)C(CCSC)NC(=O)c2ccco2)cc1OC (stereo not drawn)	-6
Cc1ccc(S(=O)(=O)N(C)C)cc1NC(=O)CN1c2cccc3cccc(c23)S1(=O)=O	2
